SARS PLP yeast = SARS-CoV PLP inhibition in yeast | 0.19% of 330,000 active | Potency, µM (series often up to 32.9 µM), for the others: at the highest dose activity, positive = growth rescue | S. cerevisiae expressing SARS-CoV PLpro, growth rescue; control for the full effect not named in the record; note: 0% is about no effect; nearly all actives have a fitted effect of over 55% in size; growth read by luminescence after 48 h
Cruzain noTriton = inhibitors of Trypanosoma cruzi cruzain without detergent; P25779; 2.3% of 200,000 active; purified cruzain, Z-FR-AMC fluorescence, no detergent; Potency, µM, for the others: max response, negative = inhibition, actives largely listed as inhibitors; active = well fitted curve in the direction sought with a large enough effect; inconclusive = small, poorly fitted or top-dose-only effect, or another doubt; inactive = no such curve, though single readings can be large; an effect the other way counts as inactive or inconclusive;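 note: plate controls were enzyme without inhibitor for no effect and buffer without enzyme for full effect; nearly all actives have a fitted effect of over 40% in size; top concentration of the series not given in the record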
Target sequence (P25779 123-467 limits assumed): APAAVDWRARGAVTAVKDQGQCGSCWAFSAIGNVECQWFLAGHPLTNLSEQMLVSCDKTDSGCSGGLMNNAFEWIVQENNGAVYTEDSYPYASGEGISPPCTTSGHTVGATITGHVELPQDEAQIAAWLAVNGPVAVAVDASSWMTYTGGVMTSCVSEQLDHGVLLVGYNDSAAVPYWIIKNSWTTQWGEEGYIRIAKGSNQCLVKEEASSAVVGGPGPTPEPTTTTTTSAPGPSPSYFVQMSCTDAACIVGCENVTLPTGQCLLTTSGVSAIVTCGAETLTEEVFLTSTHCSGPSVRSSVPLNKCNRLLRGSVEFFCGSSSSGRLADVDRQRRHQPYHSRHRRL
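Purified cruzain at 1.5 nM, pre-incubated 15 min with compound at room temperature in 100 mM sodium acetate pH 5.5, 5 mM DTT, 0.00005% Triton X-100. Reaction started with 2 uM Z-FR-AMC; AMC fluorescence increase over 60 s gives rate.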
Cruzain inh Det = inhibitors of Trypanosoma cruzi cruzain with detergent. P25779. Potency, µM, without a hit: max response, negative = inhibition, usual class: inhibitors. purified cruzain, Z-FR-AMC fluorescence, 0.01% Triton. 0.43% of 200,000 active; active = well fitted curve in the direction sought with a large enough effect; inconclusive = small, poorly fitted or top-dose-only effect, or another doubt; inactive = no such curve, though single readings can be large; an effect the other way counts as inactive or inconclusive;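 note: plate controls were neutral wells for no effect and buffer without enzyme for full effect; nearly all actives have a fitted effect of over 40% in size; top concentration of the series not given in the record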
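Sodium acetate buffer (100 mM, pH 5.5) containing 5 mM DTT and 0.01% Triton X-100 hosted 1.5 nM cruzain and test compound for 15 min at room temperature. Cleavage of 2 uM Z-FR-AMC was then tracked by fluorescence.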
RE007 growth inh = less growth of the S. pombe RE007 Vpr strain; S. pombe RE007 Vpr strain, BacTiter-Glo ATP luminescence, 24 h; control for the full effect not named in the record; Potency, µM (highest dose often 92.2 µM), without a hit: at the top dose activity change, negative = less growth; 0.21% of 360,000 active; active = well fitted falling curve with a large enough effect; inconclusive = small, poorly fitted or top-dose-only effect; inactive = no such curve, though single readings can be large or run the other way;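 note: % is set by controls: 0 for no effect and ±100 for the full control effect; nearly all actives have a fitted effect of over 50% in size; the assay follows cell death caused by Vpr and the record does not say whether a fall means rescue or toxicity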
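Fission yeast strain RE007, carrying one chromosomally integrated HIV-1 vpr copy, was seeded at OD 0.01 in PMG+AL medium with 23 nL pinned compound. After 24 h at 30 °C and 99% humidity, viability was read by BacTiter-Glo luminescence.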
Marburg entry inh = inhibitors of Marburg virus binding or cell entry; Marburg virus pseudotyped entry inhibition, cell reporter; control for the full effect not named in the record; about a third of the inactives were read at about 46 µM; Potency, µM (series often up to 37.8 µM), for the others: at the top dose activity change, negative = inhibition, actives largely listed as inhibitors; 1.8% of 300,000 active; AID 540276; active = well fitted inhibition curve with a large enough effect; inconclusive = small, poorly fitted or top-dose-only effect, or effect the other way; inactive = flat fitted curve, though single readings scatter; tested in HEK293 cells; about a fifth of its hits are not listed in these tables; note: % is set by controls: 0 for no effect and ±100 for the full control effect; luciferase read-out
LASV entry inh = Lassa virus entry inhibition; 1.2% of 300,000 active; Lassa virus pseudotype entry inhibition, cell reporter; control for the full effect not named in the record; Potency, µM (doses to about 37.9 µM), without a hit: at the top dose activity change, negative = inhibition, hits mostly inhibitors; active means well fitted inhibition curve with a large enough effect; inconclusive means small, poorly fitted or top-dose-only effect, or effect the other way; inactive means flat fitted curve, though single readings scatter; tested in HEK293 cells; note: % is set by controls: 0 for no effect and ±100 for the full control effect; nearly all actives have a fitted effect of over 50% in size; luciferase read-out
StopGo reporter = FMDV 2A StopGo reporter, luciferase signal; human cells with a luciferase reporter of 2A StopGo recoding; control for the full effect not named in the record; 1.2% of 410,000 active; Potency, µM (series often up to 57.9 µM), for the others: at the highest dose signal change, negative = less light; AID 1159524; active = well fitted falling curve with a large enough effect; inconclusive = small, poorly fitted or top-dose-only effect; inactive = no such curve, though single readings can be large or run the other way; tested in HEK293T cells; note: % is set by controls: 0 for no effect and ±100 for the full control effect; nearly all actives have a fitted effect of over 45% in size; luciferase light after 4 h
NS1 inh = blocks influenza NS1 protein function; Potency, µM (series often up to 46.1 µM), without a hit: at the top dose activity, positive = more growth; AID 2326; S. cerevisiae slowed by influenza A NS1, growth recovery by OD600; 0.4% of 270,000 active; note: actives are rising curves; nearly all actives have a fitted effect of over 50% in size
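A cell-based growth assay was used: compounds that relieve NS1-induced slow growth of budding yeast raise OD600. Assay medium was yeast nitrogen base with ammonium sulphate and -URA supplement, pH 6.0, with 2% galactose.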
Active calls of the source: *; ? = inconclusive; . = not tested or not shown; & = joins results of further samples; [ ] = another dose, or the depositor's remark. Unless noted, calls come from the whole dose curve; as a rule, active means well fitted rising curve with a large enough effect; inconclusive means small, poorly fitted or top-dose-only effect; inactive means no such curve, though single readings can be large or run the other way. Potency is the fitted concentration of half-maximal effect.

SMILES	SARS PLP yeast	Cruzain noTriton	Cruzain inh Det	RE007 growth inh	Marburg entry inh	LASV entry inh	StopGo reporter	NS1 inh
COC(=O)Nc1nnc(COc2cccc(C)c2)s1	-1%	.	.	7%	12%[46.1 µM]	-2%	10%	.
Cc1cc(N2C(=O)CC(N3CCC(n4c(=O)[nH]c5ccccc54)CC3)C2=O)no1 (stereo unspecified)	-7%	2%	4.4%	?	16%	0%	-10%	-7%
CCN1CCN(c2ncc(C(=O)Nc3cc(Cl)c(OC)cc3OC)c3ccccc23)CC1	11%	-4%	-7.2%	1%	-6%	0%	-29%	-1%
CC(CCc1ccccc1)NC(=O)C(=O)NCCc1ccccc1 (stereo unspecified)	3%	-3%	-3.8%	1%	?	?	-15%	2%
Cc1ccc(N2CC(C(=O)Nc3nnc(SCC(N)=O)s3)CC2=O)cc1 (stereo unspecified)	1%	.	.	-11%	3%	-2%	-12%	3%
C=CCn1c(SCC(=O)Nc2ccccc2C)nnc1-c1ccncc1	-7%	-8%	0.3%	0%	-2%	8%	-4%	3%
COc1ccccc1N=CC=C1OC(C)(C)C(C)(C)O1	-1%	.	.	-4%	?	?	-14%	.
COc1cc(NC(=O)c2cc(-c3ccc(Cl)c(Cl)c3)on2)cc(OC)c1OC	.	?	-4.5%	.	-4%[46.1 µM]	?	-16%	.
Cn1cccc1CC(=O)NNC(=S)NC(=O)c1ccccc1Br	0%	.	.	7%	?	-27%[46.1 µM]	-21%	.
CCCC(=O)NC(Oc1ccc(Cl)cc1Cl)C(Cl)(Cl)Cl (stereo unspecified)	6%	-11%	-1.2%	12%	3%	-17%	.	7%
O=C(Cc1ccc([N+](=O)[O-])cc1)NCc1ccncc1	-1%	.	.	11%	-1%[46.1 µM]	2%	-8%	1%
O=C(Nc1ccc(F)cc1F)N1CCCC(c2nc(-c3ccc(F)cc3)no2)C1 (stereo unspecified)	-2%	.	.	5%	-19%	15%	-24%	-7%
Cn1c(Cc2ccccc2)nnc1SCC(=O)Nc1ccccc1N1CCOCC1	7%	-7%	2.3%	11%	4%	4%	-24%	-9%
CC1(c2ccccc2)NC(=O)N(CCN2C(=O)c3ccccc3C2=O)C1=O (stereo unspecified)	-3%	8%	-1.5%	1%	-8%	-11%	-7%	4%
CCOC(=O)COn1c(=O)c(-c2ccc(F)cc2)[n+]([O-])c2ccccc21	2%	.	.	-7%	.	.	-7%	-3%
CN(C)S(=O)(=O)c1cccc(NC(=S)N/N=C/C(=O)c2ccccc2)c1	-8%	1%	-3.0%	22%	-7%	1%	7%	-8%
Cc1ccc2cccc(SCC(=O)N3CCOCC3)c2n1	2%	-3%	2.8%	4%	25%	1%	-17%	0%
O=C(Nc1ccc(N2CCOCC2)c(Cl)c1)c1cc2ccccc2o1	-46%	4%	-7.5%	?	?	?	-29%	3%
CC(=C\c1ccccc1)/C=C1/SC(=S)N(CCC(=O)O)C1=O	-1%	.	.	-5%	.	.	?	-3%
COc1ccc(-c2ncccc2OC(=O)C23CC4CC(CC(C4)C2)C3)cc1	-21%	-8%	-14%	8%	?	-13%	-22%	-2%
OCCN(Cc1ccccc1)CC(O)COc1ccc(-c2ccccc2)cc1 (stereo unspecified)	-1%	.	.	-6%	.	.	1%	-15%
COc1ccc(CN(C(=O)COc2ccc(C)c(C)c2)C2CCS(=O)(=O)C2)cc1OC (stereo unspecified)	-1%	.	.	1%	.	.	-3%	-7%
O=C1COc2ccc(C(=O)COC(=O)/C=C/c3ccc(Br)o3)cc2N1	3%	.	.	21%	?	-3%	?	.
Cc1cccc(Nc2nc(OCC#N)nc(N(C)C)n2)c1	1%	.	.	0%	-14%[46.1 µM]	22%[46.1 µM]	0%	-9%
OC1(Cc2cc(-c3ccccc3)no2)CCN(CCCc2ccccc2)CC1	3%	.	.	1%	.	.	-18%	9%
CCCc1cc(=O)[nH]c(SCC(=O)Nc2cc(C)on2)n1	0%	.	.	-21%	-24%[46.1 µM]	5%[46.1 µM]	9%	.
CCN(CC)CCNC(=S)N1CCn2c(nc3ccccc32)C1	-9%	7%	-22%	-6%	?	?	-3%	-4%
O=C1CSC(c2ccc(F)cc2)N1c1ccccc1F (stereo unspecified)	-1%	.	.	0%	-3%[46.1 µM]	2%[46.1 µM]	-17%	2%
CN(CC(=O)NCC1CCCCC1)S(=O)(=O)c1ccc(F)cc1	2%	.	.	-1%	-6%[46.1 µM]	0%[46.1 µM]	-4%	-1%
CCOC(=O)c1c(NC(=O)CCc2ccc(CC)o2)sc(C)c1C	-17%	-1%	-3.4%	-24%	-24%	0%	-3%	-12%
NC(=O)NC(=O)COC(=O)c1cccc(S(=O)(=O)N2CCCCCC2)c1	-1%	.	.	5%	.	.	68%[activator]	-7%
COc1ccccc1N1CCN(C(=O)C2CCN(C(=O)c3ccc(C(C)(C)C)cc3)CC2)CC1	-1%	.	.	-7%	17%	8%	0%	-35%
Cc1cc(=O)n2nc(N3CCC(C(=O)NCc4cccnc4)CC3)sc2n1	6%	-11%	-7.9%	-26%	20%	9%	-14%	3%
Nc1nc2ccccc2n1C(=O)c1ccco1	-44%	-2%	-11%	1%	?	?	0%	2%
CC(C)(C)C(=O)Nc1ccccc1C(=O)Nc1cc(Cl)ccc1Cl	-1%	-5%	-5.6%	-11%	-6%	?	?	-26%
CC(C)C(=O)N[C@H]1CCC2C3CC=C4C[C@@H](O)CC[C@]4(C)C3CC[C@@]21C (stereo partly specified)	-5%	.	.	25%	15%[46.1 µM]	3%[46.1 µM]	-10%	.
COc1cccc(CNC(=O)CCCc2cn(C)c3ccccc23)c1	1%	.	.	-4%	.	.	-13%	-43%
COc1ccccc1/C=C/C(=O)OCC(=O)c1c[nH]c2ccccc12	0%	.	.	16%	?	-11%	-10%	.
CCOc1ccccc1OCC(=O)Nc1nnc(COC)s1	12%	3%	-4.7%	-10%	-12%	9%	17%	-2%
CSCCC(NC(=O)COc1cccc2ccccc12)C(=O)O (stereo unspecified)	2%	.	.	-1%	.	.	12%	0%
COc1c(Br)cc(/C=N/n2c(-c3ccccc3)n[nH]c2=S)c(O)c1Br	-21%	.	.	?	.	.	-10%	-132%
O=C(C(c1ccccc1)N1CCOCC1)N1CCOCC1 (stereo unspecified)	.	-5%	9.7%	26%	29%[46.1 µM]	14%	-1%	12%
Cc1ccc(Sc2c(C(=O)NCc3ccccc3C)[nH]c3ccccc23)cc1	.	28%	-6.6%	.	-3%[46.1 µM]	-15%[46.1 µM]	11%	.
COc1ccc2c(c1)-c1nc(NC(=O)c3ccco3)sc1CC2	-74%	11%	-9.0%	.	?	-3%&9%	20%	-4%
Cn1c(CN(O)S(=O)(=O)c2ccc(Cl)cc2)nnc1C(F)(F)F	-3%	.	.	1%	3%[46.1 µM]	23%[46.1 µM]	3%	6%
COC(=O)c1ccc(NC(=O)Nc2ccc(F)cc2F)cc1	-1%	.	.	5%	?	16%[46.1 µM]	10%	0%
O=c1[nH]c(=O)n(C2CCCCC2)c(O)c1/C=C/C=Nc1ccccc1	0%	.	.	-1%	?	-6%[46.1 µM]	0%	-2%
O=C(Cn1cnc2ccccc2c1=O)N1CCN(c2ccccc2)CC1	-6%	-5%	-1.0%	-1%	15%	2%	3%	-28%
CCOCCCNC(=O)c1ccccc1SCC	-1%	-5%	-1.3%	-13%	-10%	22%	8%	3%
COc1ccc(CNc2ncnc3cc(OC)c(OC)cc23)cc1OC	0%	.	.	9%	?	?	-18%	6%
CN1CCN(CCCNC(=O)c2ccc3c(Cl)c4c(nc3c2)CCCC4)CC1	-2%	.	.	-7%	.	.	-23%	9%
Cc1ccc(C(C)C)c(OCc2ccc(C(=O)N/N=C/c3ccc(O)cc3O)cc2)c1	3.2µM*	-29%	-8.5%	-2%	6.3µM*	?	0%	-12%
O=c1c(Cc2ccc(F)cc2)c(O)ccn1Cc1ccco1	5%	.	.	-6%	?	9%[46.1 µM]	3%	0%
CC(=O)c1c(N2CCCCC2)nc(=O)n(-c2ccccc2)c1C	4%	-11%	-3.1%	20%	-15%	4%	-1%	-4%
COC(=O)c1cc(NS(=O)(=O)c2ccc(NC(C)=O)cc2)ccc1Cl	0%	.	.	1%	-7%[46.1 µM]	7%	12%	3%
O=C(O)C1(Nc2ccc([N+](=O)[O-])cc2[N+](=O)[O-])CCCC1	.	.	.	-1%	9%	25%	-15%	.
CCOC(=O)c1sc(-c2ccccn2)nc1C	0%	.	.	-17%	?	17%	68%[activator]	.
O=C(C1=C[C@H](c2ccc(C(F)(F)F)cc2)C[C@H](OCc2ccc(CO)cc2)O1)N1CCOCC1	-1%	.	.	1%	.	.	-25%	1%
O=C(OCC(=O)N1CCOCC1)c1ccccc1SCC(=O)N1CCCC1	-2%	-11%	5.4%	0%	13%	17%	5%	4%
CCn1cnc2c1c(=O)[nH]c(=O)n2Cc1ccccc1	1%	.	.	-12%	?	?	10%	2%

Following part
SMILES	SARS PLP yeast	Cruzain noTriton	Cruzain inh Det	RE007 growth inh	Marburg entry inh	LASV entry inh	StopGo reporter	NS1 inh
CCC(CO)Nc1ncnc2c1cnn2-c1ccc(Cl)cc1 (stereo unspecified)	5%	3%	-0.9%	8%	.	.	-15%	-4%
CN(C)c1ccc(-c2nnc(-c3ccc(S(=O)(=O)C(F)F)cc3)o2)cc1	9%	-20%	-0.8%	-18%	-4%	4%	-22%	-8%
COc1ccc(C)cc1N(CC(=O)NCCSCc1ccco1)S(=O)(=O)c1ccc(C)cc1	1%	.	.	-4%	?	?	-5%	-1%
Cc1onc(C(=O)NCCc2ccccc2)c1[N+](=O)[O-]	-1%	.	.	11%	0%	-6%	20%	4%
CCCCNC(=O)CSc1nc2ccccc2c(=O)n1C1CCCC1	-5%	-5%	-3.9%	12%	?	-11%	-15%	-11%
CC1=C(C)C(C)=C(C#N)C(=C(C#N)C#N)N1	1%	.	.	4%	16%[14.2 µM]	7%	-5%	6%
COc1cc(/C=N/NC(=O)C(=O)/C=C2\NC(C)(C)Cc3ccccc32)ccc1O	-2%	.	.	5%	.	.	-8%	16%

Source: PubChem (National Center for Advancing Translational Sciences (NCATS))
